Source: PubChem
WNV protease inh: inhibitors of WNV NS2B-NS3 protease, primary screen, biochemical, fluorogenic substrate; Genome polyprotein (West Nile virus), P06935; fluorogenic substrate Ex360/Em465; stronger effect = lower value; z-score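 (tested at a level between 10 and 100 µM)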; actives 0.18% (n = 65,000); AID 577, 2007;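 active = z-score at -3 or under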;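 note: score is relative to mean and spread of the compound wells of a plate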
Target sequence (P06935 1371-1501 limits assumed): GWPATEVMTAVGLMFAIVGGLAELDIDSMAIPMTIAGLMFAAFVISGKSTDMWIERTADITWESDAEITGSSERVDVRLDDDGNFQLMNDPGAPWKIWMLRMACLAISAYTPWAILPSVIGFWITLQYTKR
Target sequence (P06935 1502-1679 limits assumed): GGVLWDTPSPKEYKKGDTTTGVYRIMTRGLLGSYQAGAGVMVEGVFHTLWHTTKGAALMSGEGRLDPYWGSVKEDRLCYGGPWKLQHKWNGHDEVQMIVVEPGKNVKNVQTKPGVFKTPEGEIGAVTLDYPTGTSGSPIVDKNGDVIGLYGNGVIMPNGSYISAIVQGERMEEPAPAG
Hsc70 ATP site: Hsc70 inhibitors, probe displacement, primary screen, biochemical, fluorescence polarization (AID 568); Hsc70 fluorescence polarization, probe displacement; higher % means a stronger effect; strong numbers were not always called active; 83,000 tested, under 10 active; Heat shock cognate 71 kDa protein (Homo sapiens); displacement, % at 20 µM, or IC50 in µM where a hit was titrated;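 active = displacement above 50% without optical interference and an IC50 on retest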;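 note: ATPase domain with a fluorescein-tagged ATP probe; 0% = vehicle and 100% = excess ADP; read after one hour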
MT1-MMP promoter: inhibitors of MT1-MMP promoter transcription, cell-based, luciferase reporter, luminescence (AID 618). MT1-MMP promoter luciferase reporter cells, luminescence. calls from a first round at 10 µM; hits with a dose series show EC50 in µM. actives 0.62% (n = 87,000);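 active = over half of the reporter light lost at 10 µM or EC50 under 50 µM; inactive = the rest and hits that failed the dose series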;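 note: actives suppress MT1-MMP promoter-driven transcription so potencies describe inhibitors; HT1080 fibrosarcoma cells; overnight exposure; toxic or luciferase-blocking compounds were not removed from the actives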
Numbers without * were called inactive; i = inactive; . = not tested or not shown.

Results follow in this order: Hsc70 ATP site	WNV protease inh	MT1-MMP promoter
1. O=C(Nc1nnc(-c2ccccc2)o1)NC1CCCCC1
  1.0%	2.2	i
2. CC1CC(=O)c2cnc(NCC3CCCO3)nc2C1 (stereo not given)
  2.1%	-0.32	i
3. COc1cccc(N2C(=O)C(CC(=O)Nc3ccc(F)cc3)N(C3CCCCC3)C2=O)c1 (stereo not given)
  2.3%	-0.57	i
4. CCOC(=O)C1=C(C)N=c2s/c(=C\c3cccn3C)c(=O)n2C1c1cccc(OC)c1OC (stereo not given)
  -53%	-0.86	i
5. CCOc1nc(SCCOc2ccccc2)nc(N(C)C)n1
  0.8%	0.08	i
6. COCCN1CCN(c2c(C)c(C)nc3cc(-c4cccc(OC)c4)nn23)CC1
  -0.4%	-0.63	i
7. CCOC(=O)COc1ccc(Cl)cc1C1NC(=O)NC(C)=C1C(C)=O (stereo not given)
  -2.3%	0.001	i
8. FC(F)Oc1ccc(-c2csc(Cc3nnc4n3CCCCC4)n2)cc1
  4.2%	0.05	i
9. COC(=O)C1(CCSC)NC(c2ccc(O)cc2)C2C(=O)N(c3ccc4c(c3)OCCO4)C(=O)C21 (stereo not given)
  -2.0%	0.2	i
10. COc1ccccc1C(=O)N1CCN(c2cccc(Cl)c2)CC1
  -0.8%	1.2	i
11. N#Cc1ccc(OCC(=O)NCCc2ccc(S(N)(=O)=O)cc2)cc1
  -0.2%	-0.59	i
12. S=P(c1ccc(N2CCOCC2)cc1N1CCOCC1)(N1CCOCC1)N1CCOCC1
  4.0%	-0.57	i
13. COc1ccc(NC(=O)C2CCN(C(=O)c3cccs3)CC2)cc1OC
  1.6%	.	i
14. C/C(NCc1ccccc1)=C(\C#N)C(=O)NCc1ccccc1
  4.4%	.	i
15. Cc1n[nH]c(C)c1S(=O)(=O)N1CCOCC1
  -5.9%	-1.1	i
16. COc1ccccc1C(c1nnnn1C(C)(C)C)N1CCCc2ccccc21 (stereo not given)
  -3.2%	.	i
17. O=C(c1cccc(S(=O)(=O)N2CCOCC2)c1)N1CCCc2ccccc21
  2.4%	0.05	i
18. Nc1ccccc1-c1nnc(SCc2ccccc2F)[nH]c1=O
  0.9%	-0.49	i
19. O=C1CCC(=O)N1c1ccccc1-c1ccccc1
  -2.3%	-0.56	i
20. Cc1ccc(Nc2nc(N)nc(CN3CCN(Cc4ccc5c(c4)OCO5)CC3)n2)cc1
  -2.2%	-0.74	i
21. CC(C)C1N(S(=O)(=O)c2ccccc2)CCN1S(=O)(=O)c1ccccc1
  -7.0%	-0.68	i
22. COc1ccc2nc(SCC(=O)Nc3ccc(S(=O)(=O)Nc4onc(C)c4C)cc3)[nH]c2c1
  -2.7%	1.1	i
23. O=C(CSc1nc2ncccc2[nH]1)NCc1ccccc1
  0.4%	-0.19	i
24. COC(=O)C1=C(C(=O)OC)SC2(S1)C(C(=O)OC)=C(C(=O)OC)SC1=C2c2cc(C)ccc2NC1(C)C
  -4.2%	.	i
25. CCn1c(Cc2ccc(OC)cc2)nnc1SCC(=O)NC1CCCCC1
  -6.0%	0.4	i
26. CC(=O)c1c(N(C)C)ccnc1C(F)(F)F
  -6.1%	2.2	i
27. N#Cc1c(NC(=O)Cn2cnc3ccccc3c2=O)oc(-c2ccccc2)c1-c1ccccc1
  9.8%	-0.4	i
28. CCOc1ccc(/C(O)=C2/C(=O)C(=O)N(CCOCCO)C2c2ccc(F)cc2)cc1 (stereo not given)
  3.3%	-1.3	i
29. Cc1ccccc1-c1noc(-c2ccc(Cl)cc2)n1
  1.7%	.	i
30. O=S(=O)(CCc1nc2ccccc2o1)c1ccc(Cl)c(Cl)c1
  -2.5%	-0.21	i
31. CC(=O)c1sc(NC(=O)c2ccc(Cn3cc(Br)cn3)o2)nc1C
  -1.2%	-2	i
32. CCOC(=O)C1CCN(CC(=O)Nc2c(C(=O)OC)[nH]c3cccc(C)c23)CC1
  -4.8%	-1.5	i
33. C=CCn1c2ccccc2c2nnc(SCC(=O)NC(C(=O)OC)C(C)C)nc21 (stereo not given)
  0.5%	-1.2	i
34. Cc1ccc(CNC(=O)c2ccc(Cn3nc(C)c(Cl)c3C)o2)cc1
  4.8%	-1.5	i
35. CN(C)/C=C1\N=C(c2ccc3c(c2)OCO3)OC1=O
  -3.9%	-0.3	i
36. O=C1c2ccccc2C(=O)N1CCc1nc(-c2ccccn2)no1
  -4.4%	2.9	i
37. O=C(O)CCCCCN=C1CCc2ccccc2N1
  1.6%	1.5	i
38. Cc1ccc(C2/C(=C(\O)c3ccc4c(c3)OCCO4)C(=O)C(=O)N2CCCN(C)C)o1 (stereo not given)
  0.3%	-2.4	i
39. COc1ccc(NC(=O)c2ccco2)cc1NC(=O)c1cccs1
  3.3%	0.01	i
40. CC(=O)Nc1ccc(S(=O)(=O)N2CCN(C(=O)N3CCOCC3)CC2)cc1
  7.0%	-1.3	i

One compound at a time (already shown). Order of values: Hsc70 ATP site | WNV protease inh | MT1-MMP promoter
Record of `CC(=O)Nc1ccc(S(=O)(=O)N2CCN(C(=O)N3CCOCC3)CC2)cc1` : 7.0% | -1.3 | i
Record of `Cc1ccc(CNC(=O)c2ccc(Cn3nc(C)c(Cl)c3C)o2)cc1` : 4.8% | -1.5 | i
Record of `O=S(=O)(CCc1nc2ccccc2o1)c1ccc(Cl)c(Cl)c1` : -2.5% | -0.21 | i
Record of `Cc1ccc(C2/C(=C(\O)c3ccc4c(c3)OCCO4)C(=O)C(=O)N2CCCN(C)C)o1` (stereo not given) : 0.3% | -2.4 | i
Record of `CCn1c(Cc2ccc(OC)cc2)nnc1SCC(=O)NC1CCCCC1` : -6.0% | 0.4 | i

Other entries.
Results follow in this order: Hsc70 ATP site	WNV protease inh	MT1-MMP promoter
41. CCN(CC)CCNS(=O)(=O)c1ccc(Cl)cc1
  -1.9%	-0.74	i
42. CC(NC(=O)c1ccc(C(C)(C)C)cc1)C(=O)O (stereo not given)
  1.1%	.	i
43. COc1ccc(NC(=O)c2sc(SCc3ccccc3)nc2N)cc1
  2.3%	.	i
44. CCOc1ccc(C2N(c3cc(C)on3)C(=O)C3CCCN32)cc1OC (stereo not given)
  -4.2%	0.6	i
45. CCNC(=O)N1C(=O)C2(OCCO2)c2ccccc21
  -104%	1.6	i
46. COc1ccccc1CNCc1cc(OC)c(OC)cc1OC
  -1.2%	-0.11	i
47. N=c1c2c3c(sc2ncn1N)CCCCC3
  -0.9%	-0.43	i
48. CC1CCCN(S(=O)(=O)c2coc(C(N)=O)c2)C1 (stereo not given)
  -1.6%	-0.38	i
49. CCNc1nnc(-c2ccncc2)s1
  -2.2%	.	i
50. CC(NC(=O)Nc1ncccn1)(C(F)(F)F)C(F)(F)F
  -14%	1.3	i
51. CCOC(=O)C1(C)NC(c2ccc(OC)cc2OC)C2C(=O)N(c3cccc(OC)c3)C(=O)C21 (stereo not given)
  2.3%	1.6	i
52. C=CCOC(=O)C1=C(C)Nc2nnnn2C1c1cccc(OC)c1OC (stereo not given)
  3.7%	-0.37	i
53. COc1c(C)cc(Br)cc1C(=O)Nc1cccc(NC(=O)c2ccco2)c1
  6.4%	0.19	i
54. O=C(c1ccc2c(c1)OCCO2)C1CCN(S(=O)(=O)c2cccc(F)c2)CC1
  4.4%	0.19	i
55. O=S(=O)(c1cccc2c(S(=O)(=O)N3CCCC3)cccc12)N1CCCC1
  -6.6%	-0.97	i
56. Cc1c(C)[n+](=O)c(-c2ccco2)c(C)n1[O-]
  -3.5%	-0.72	i
57. Cc1cc(NC(=O)CSc2ccc3nnc(-c4ccccn4)n3n2)no1
  1.0%	-0.69	i
58. COc1ccc(OC)c(NC(=O)CSc2ncnc3c2cnn3-c2ccccc2Cl)c1
  -1.4%	.	i
59. C=CCNc1nc(C)nc(OC)n1
  0.7%	2.6	i
60. CC(=O)c1c(C(C)=O)c(C)n(C2CCCCC2)c1C
  -1.5%	.	i
61. Cc1nc(SCn2nnc3ccccc3c2=O)nc(C)c1C
  3.6%	-0.02	i
62. COc1ccccc1NC(=O)Cn1c(=O)n2nc(C)nc2c2ccccc21
  5.2%	-0.78	i
63. O=C1c2ccccc2S(=O)(=O)N1CC(O)COc1ccc(Br)cc1 (stereo not given)
  -1.9%	0.17	i
64. O=C(NC1CCCCC1)NC1CC2CCC(C1)N2C(=O)NCc1ccccc1 (stereo not given)
  4.9%	-0.005	i
65. COc1ccc(CCNS(=O)(=O)c2ccc3c(c2)CCN3C(=O)CCC(=O)O)cc1OC
  4.2%	-0.14	i
66. OC(COCc1ccccc1)CN1CCN(c2ccccc2F)CC1 (stereo not given)
  2.0%	1.4	i
67. Nc1c(-c2ccccc2)n[nH]c1-c1ccccc1
  1.9%	-0.35	i
68. Cc1cc(N(C)C)c(C#N)c(N2CCOCC2)n1
  5.9%	-0.91	i
69. CCN1CCN(Cc2ccccc2NC(=O)Nc2ccc(C)cc2)CC1
  -7.2%	-0.3	i
70. COc1ccc(N(CC(=O)Nc2ccccc2C(=O)NCc2ccco2)S(C)(=O)=O)cc1
  0.7%	.	i
71. COc1cccc(NC(=O)c2ccccc2SC)c1
  0.7%	0.88	i
72. CCCC(=O)Nc1ccc(NC(=O)c2cccs2)cn1
  2.8%	-0.93	i
73. O=c1c2ccccc2[nH]c(=S)n1CCCN1CCOCC1
  0.2%	.	i
74. COc1ccc(-c2cc3ccccc3n2CC(O)Cn2nc(C)cc2C)cc1 (stereo not given)
  5.5%	0.96	i
75. N#CCC(=O)Nc1ncn(Cc2ccccc2Cl)n1
  -1.3%	0.89	i
76. Cc1cccc(S(=O)(=O)Nc2cccc(-c3cn4ccsc4n3)c2)c1
  -11%	-0.24	i
77. CCOC(=O)C(CCc1nnc(N)s1)C(=O)OCC
  -0.2%	-0.64	i
78. CC(=O)N1CCc2cc(Br)cc(S(=O)(=O)N3CCN(C(=O)c4ccco4)CC3)c21
  6.9%	-0.44	i
79. Cc1nnc(SCc2nc3ccccc3[nH]2)s1
  -4.0%	0.17	i
80. Cc1ccc(NC(=O)CCC(=O)c2cccs2)cc1
  -0.2%	.	i

The closing 3 records of the section above are carried over, then new ones follow.
Results follow in this order: Hsc70 ATP site	WNV protease inh	MT1-MMP promoter
78. CC(=O)N1CCc2cc(Br)cc(S(=O)(=O)N3CCN(C(=O)c4ccco4)CC3)c21
  6.9%	-0.44	i
79. Cc1nnc(SCc2nc3ccccc3[nH]2)s1
  -4.0%	0.17	i
80. Cc1ccc(NC(=O)CCC(=O)c2cccs2)cc1
  -0.2%	.	i
81. COc1cc(-c2nc(Cc3c(F)cccc3Cl)no2)cc(OC)c1OC
  -11%	-0.72	i
82. O=C(NCC1CCCCC1)C1CCCN(C(=O)NC2CCCCC2)C1 (stereo not given)
  -12%	0.27	i
83. CCOC(=O)c1cc(NC(=O)N2CCCCC2)c(C)nc1C
  -0.9%	0.4	i
84. CC(=O)Nc1ccc(S(=O)(=O)N2CCN(c3cc(C)nc4ccccc34)CC2)cc1
  -6.7%	-0.69	i
85. COc1ccc(C(=O)NCCNC(C)=O)cc1S(=O)(=O)NCc1ccc(Cl)cc1
  -0.5%	1.6	i
86. CNC(=O)N(O)C1N(C)C(=O)N(CC(=O)OC)C1(C)C (stereo not given)
  -3.8%	-2	i
87. CCC(=O)Nc1ccc(NC(=O)c2cccc(OC)c2)nc1
  2.0%	-0.26	i
88. CCCS(=O)(=O)N1CCCC(C(=O)NCCCN(Cc2ccccc2)C(C)C)C1 (stereo not given)
  -2.3%	-1.3	i
89. Cc1onc(-c2ccccc2)c1C(=O)NCc1ccc2c(c1)OCO2
  -0.5%	-0.66	i
90. COC(=O)C1C2C=CC3(CN(Cc4ccco4)C(=O)C13)O2 (stereo not given)
  2.7%	-1.1	i
91. CCOc1ncnc2c1oc1nc(CC(C)C)c3c(c12)CC(C)(C)OC3
  -1.1%	.	i
92. O=C(NCc1ccccn1)c1c(Cl)cccc1Cl
  2.2%	-0.83	i
93. Cc1cc(C(=O)CSc2nnc(-c3ccc(Cl)cc3)n2CC2CCCO2)c(C)n1C (stereo not given)
  10%	-0.72	i
94. O=C1C=C(O)CC(c2ccc(Cl)cc2)C1 (stereo not given)
  0.9%	0.11	i
95. CCc1nc(N)c(C#N)c(-c2cccnc2)c1C
  -8.0%	0.8	i
96. CCC1Oc2ccc(C)cc2N(CC(=O)N2CCN(c3ccc(F)cc3)CC2)C1=O (stereo not given)
  0.5%	-0.38	i
97. COc1cc(C2N(c3ccccc3)CCN2c2ccccc2)cc(OC)c1OC
  0.2%	-0.92	i
98. CCn1cc(CNC(=O)CCSc2nc(-c3ccco3)cc(C(F)(F)F)n2)cn1
  4.6%	.	i
99. CSc1nsc(SCCN2C(=O)c3ccccc3C2=O)n1
  0.9%	0.06	i
100. O=C(Nc1ccc(Cl)cc1)N1CCN(c2ccccc2)CC1
  -1.8%	.	i
101. O=C(OCc1ccccc1)Oc1cncc(C(=O)O)c1
  -0.5%	0.24	i
102. Nc1nonc1/C(=N/O)N1CCN(CCO)CC1
  -3.0%	-0.61	i
103. COc1ccc(C(=O)Nc2nc3ccccc3[nH]2)cc1S(=O)(=O)N1CCCC1
  -1.4%	.	i
